HNF4A DNA FP – change in binding of human HNF4A to DNA, primary screen, biochemical, fluorescence polarization, FITC-DNA. activity change, % at 10 µM. Hepatocyte nuclear factor 4-alpha (Homo sapiens), P41235. 1 h. actives 0.3% (n = 360,000); in the data active = activity change above about 30%, passing the limit was not always enough;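 note: controls were the assay level and a saturating level of protein; the project sought stronger binding though the title names inhibitors; some compounds called inactive have numbers as strong as hits; positive values seem to mean higher polarization but the record does not say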
Target sequence (P41235 whole entry, looked up): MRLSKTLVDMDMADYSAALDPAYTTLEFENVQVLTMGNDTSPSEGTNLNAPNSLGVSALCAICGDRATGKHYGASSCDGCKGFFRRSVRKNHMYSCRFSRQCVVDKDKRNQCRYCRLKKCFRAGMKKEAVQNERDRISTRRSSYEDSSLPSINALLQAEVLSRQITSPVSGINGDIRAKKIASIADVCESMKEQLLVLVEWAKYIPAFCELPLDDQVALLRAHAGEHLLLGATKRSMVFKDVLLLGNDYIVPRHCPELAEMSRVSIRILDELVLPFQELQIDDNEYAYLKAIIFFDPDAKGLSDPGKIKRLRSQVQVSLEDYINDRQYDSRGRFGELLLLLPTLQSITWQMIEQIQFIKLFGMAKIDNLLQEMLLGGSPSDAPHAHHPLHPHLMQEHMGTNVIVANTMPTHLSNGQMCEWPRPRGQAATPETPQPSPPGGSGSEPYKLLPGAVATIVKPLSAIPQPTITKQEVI
RanGTP-Imp inh – inhibitors of RanGTP-importin-beta interaction, primary screen, biochemical, FRET, CFP-Ran, YFP-importin-beta, homogeneous | inhibition, % (no concentration beside the values) | Ran GTPase (GTP-bound) - importin-beta complex | cell-free CFP-Ran/YFP-importin-beta FRET ratio | actives 1.1% (n = 300,000);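 active = most replicates above 15%; inconclusive = exactly half above 15%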;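 note: 0% = DMSO wells and 100% = Ran loaded with GDP instead of GTP; wells of about 40 µL received 100 nL stock; the first replicate is given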
LANA-H2A inh – blockers of LANA interaction with H2A/H2B – biochemical, FP readout, HTS, primary screen. cell-free LANA-H2A/H2B peptide, fluorescence polarization. inhibition, % (concentration not given with the values). actives 0.6% (n = 320,000); in the data active = inhibition mostly above about 10%, no sharp cut-off; inactive = mostly below about 6.7%;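 note: stock transfer was 7.5 nL into about 10 µL; 0% = median of vehicle wells and 100% = median of positive control wells; one replicate is shown; the record names a cut of 25% in any replicate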
Vif A3G – inhibitors of Vif binding to APOBEC3G peptide, primary screen, biochemical, TR-FRET, GST-Vif 1-94, biotin-A3G peptide, dose response retest (AID 1117319) | Virion infectivity factor (Human immunodeficiency virus type 1 group M subtype B (isolate … | TR-FRET GST-Vif / biotin-A3G peptide binding; higher % means a stronger effect; test concentration not given here; strong numbers were not always called active | inhibition, %, or IC50 in µM where a hit was titrated | actives 0.57% (n = 260,000);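 active = above the screen mean plus three standard deviations and confirmed in dose response; inconclusive = results disagree or hit not tested in dose response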;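 note: Vif residues 1-94 fused to GST binding biotinylated APOBEC3G peptide 110-148; 0% = full assay without inhibitor and 100% = GST in place of GST-Vif; retest series ran down from 100 µM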
Calb FLC – C. albicans growth inhibition with fluconazole, primary screen, CaCi-2 strain, Alamar Blue fluorescence | C. albicans CaCi-2 (fluconazole-resistant clinical isolate) + fluconazole, 48 h | growth inhibition, % (no concentration beside the values) | actives 0.57% (n = 300,000);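 active = most replicates above 75%; inconclusive = exactly half above 75%; inactive = most below 75%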;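 note: all wells also contain fluconazole at 8 µg/ml as a sub-toxic cotreatment; 0% = median of DMSO wells and 100% = median of geldanamycin control wells; wells of about 8 µL received 7.5 nL stock; the first replicate is given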
B2AR ag – beta2AR agonists driving receptor internalization, primary screen, cell-based, FAP fluorogen, flow cytometry; Beta-2 adrenergic receptor (Homo sapiens), P07550; Am2.2-beta2AR cells; reference of the scale not given here; response, % (no concentration beside the values); actives 0.43% (n = 340,000); AID 504454, 2011;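 active = response above a set limit, near 3 SD of response in nonfluorescent compounds, cut at about 42% in these data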;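 note: stock transfer was 100 nL into about 11 µL; a reference agonist was the positive control; negative values mostly stem from fluorescent compounds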
ALR H2O2 inh – inhibitors of human ALR sulfhydryl oxidase, primary screen, biochemical, H2O2 detection, HRP-luminol luminescence, single point; inhibition, % (test concentration not listed); actives 3.8% (n = 290,000); purified ALR, DTT oxidation;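 active = mean and each replicate at 75% or more; inconclusive = only one of the two met; inactive = neither met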;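 note: stock transfer was 7.5 nL into about 7.5 µL; 0% = neutral wells and 100% = wells with inactivated enzyme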
Target sequence (P55789 whole entry, looked up): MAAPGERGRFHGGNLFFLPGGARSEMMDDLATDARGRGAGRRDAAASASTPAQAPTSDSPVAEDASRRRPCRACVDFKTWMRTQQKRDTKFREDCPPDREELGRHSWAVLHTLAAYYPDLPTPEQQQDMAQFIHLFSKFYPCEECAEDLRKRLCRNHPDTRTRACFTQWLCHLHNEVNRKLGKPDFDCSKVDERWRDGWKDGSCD
Starred values were filed as active, the others as inactive; u = inconclusive; x = not tested or not shown; & = joins results of further samples.

canonical_smiles,Vif A3G,Calb FLC,LANA-H2A inh,HNF4A DNA FP,ALR H2O2 inh,RanGTP-Imp inh,B2AR ag
CC1=CC2=NC(=O)/C(=C/c3coc4ccccc4c3=O)C(=N)N2O1,7%,-3,-0.3,6.6,72,-5.1,7
O=C(Nc1ccc2nc(-c3ccccc3)oc2c1)c1ccco1,-5%,-6,3.6,-3.2,0,0.8,-7
NC1=NC(=O)/C(=C\c2ccc(O)c([N+](=O)[O-])c2)S1,x,-2,4.3,0.8,-12,-1.7,4
CCOC(=O)CNC(=O)Cn1cnc2c(cnn2-c2ccc(C)cc2)c1=O,x,-8,0.0,-1.4,-1,0.1,-2
O=C(CSc1nnc(CNc2ccccc2)o1)N1CCCc2ccccc21,-2%,7,7.2,0.8,3,-1.6,5
CCc1ccc(NC(=O)C(C)Sc2ccc(S(=O)(=O)N3CCN(C)CC3)cn2)cc1 (stereo not given),x,x,-6.5,-3.5,x,x,-4
COc1cccc(N2CCN(C(=O)c3oc4ccccc4c3NC(=O)Cc3ccc(OC)c(OC)c3)CC2)c1,x,-4,2.0,3.0,-5,5.5,9
COc1ccc(N2C(=O)[C@@H]3[C@H](C2=O)[C@H](C(=O)c2ccc(OC(C)=O)cc2)N2N=CC=C[C@@H]32)cc1,x,u,4.3,x,2,-0.2,x
O=C(CSc1nnc(Cc2ccccc2)o1)N1CCOCC1,0%,3,-0.6,0.0,-2,1.8,-3
Nc1ccc2nc(C(F)(F)F)[nH]c2c1,x,-3,-5.7,1.7,51,7.6,5
COc1ccc(OCCN(C)CC(=O)Nc2c(C)cccc2C)cc1,4%,-12,4.7,0.1,1,-5.2,4
CCN(CC)CCN(C(=O)c1ccc(S(=O)(=O)N2CCCC2)cc1)c1nc2cc(C)cc(C)c2s1,x,-2,-3.9,-1.1,-1,1.5,5
CCOC(=O)N1CCN(C(=O)CCc2ccc(S(=O)(=O)NC(C)(C)C)cc2)CC1,x,-2,-1.8,1.2,1,3.2,-9
COC(=O)[C@H](Cc1ccccc1)NC(=O)NCc1ccccc1OC,1%,8,-1.9,2.6,1,6.5,16
COc1cc(C2C3=C(Nc4ncnn42)c2ccccc2CC3)cc(OC)c1OC (stereo not given),u,30,0.4,1.2,x,-0.5,10
COc1cc(C2/C(=C(\O)c3ccc4c(c3)CC(C)O4)C(=O)C(=O)N2CCCn2ccnc2)cc(OC)c1OC (stereo not given),x,-2,2.1,-1.6,-5,-4.6,-7
Cc1nc(-c2cccc(NC(=O)c3ccc(Br)o3)c2)cs1,x,22,8.9,1.3,3,x,0
Cc1ccc(NC(=O)c2cccs2)cc1,1%,-6,0.4,-1.9,-4,0.6,-2
COn1c(-n2nc(C)cc2C)nc2ccccc2c1=O,-5%,22,0.9,0.6,-24,3.6,2
CN1CCN(NC(=O)CC(C)(C)C)CC1,8%,-4,0.3,1.8,-2,-2.3,-1
CC(=O)NC(Cc1cccc(C)c1)C(=O)NC1CCN(S(=O)(=O)c2ccccc2)CC1 (stereo not given),x,-14,13*,-0.5,x,6.9,-1
CCCCCN(C(=O)CCC(=O)OCc1cccc(C(F)(F)F)c1)c1c(N)n(CCCC)c(=O)[nH]c1=O,-3%,5,-1.0,-2.4,-3,-2.3,0
CCn1c(C)nc2cc(C(=O)N=Nc3c(O)[nH]c4ccccc34)ccc21,-1%,-8,-1.1,x,-4,-6.7,x
COC1=CC(=O)OC12CCCCC2,-1%,-19,-1.3,-0.2,-3,-2.9,1
CC(=O)C1C(c2ccc3ncccc3c2)NC(=O)NC1(O)C(F)(F)F (stereo not given),u,-12,8.2,-2.5,-4,-0.6,1
CCOC(=O)CNC(=S)n1cnc(N)n1,x,29,0.5,-2.5,-6,1.2,5
CN(C(=O)COC(=O)CNC(=O)C12CC3CC(CC(C3)C1)C2)c1ccccc1,x,-17,-0.3,-2.3,-4,2.7,-15
CC(C)CN1CCC(=O)N(CCOc2ccccc2)CC1,x,-10,-0.3,-1.3,-6,1.5,-3
CCC(=O)NC(=S)Nc1ccc(NC(=S)NC(=O)c2ccc(C)cc2)cc1,-1%,18,-1.2,-0.8,-7,-1.4,-3
Cc1cccc(-c2ccc(NC(=O)C3CCN(CC4CC4)CC3)cc2)c1,x,-1,2.3,2.3,-8,3.7,19
CC1CC(C)CN(CC(O)COc2ccc3c(c2)CCC3)C1 (stereo not given),x,-2,0.4,3.0,-6,2.2,5
CCN(CC)CCN1C(=O)C(O)=C(C(=O)c2sc(C)nc2C)C1c1cccnc1 (stereo not given),-3%,-1,-5.1,-2.7,-4,-1.9,5
CNCC(=O)N(CC(C)C)c1c(N)n(CC(C)C)c(=O)[nH]c1=O,3%,5,-1.6,-0.8,-3,1.9,-6
O=C(c1cccs1)N1CCN(S(=O)(=O)N2CCCCC2)CC1,2%,x,-3.2,1.5,2,x,-14
Cc1cc(C)cc(NC(=O)CSCc2nc3c(nnn3Cc3ccc(F)cc3)c(=O)[nH]2)c1,27%,11,-2.8,-13,3,1.2,5
O=C1C(c2ccncc2)N(CCC2=CCCCC2)C(=O)CN1C1CCCCC1 (stereo not given),24%,-11,-2.8,0.3,0,4.1,-14
CNC(=O)NCCN1CCCC1=O,0%,u,-1.1,1.6,-3,1.1,9
CC(=O)NCc1ccc(C(=O)CSc2nnc(C3CC3)n2C2CC2)cc1,-1%,x,5.9,2.4,78*,x,-3
O=C(O)c1ccc(CN(c2ccccc2)S(=O)(=O)c2ccccc2)cc1,x,3,1.3,2.3,x,0.4,4
CCc1nc2ccc(C(=O)N(C)CC(=O)Nc3cccc(F)c3)cc2nc1CC,9%,x,0.5,-2.9,-1,x,4
COc1cc(C(=O)NCc2ccncc2)cc(OC)c1OC,x,-2,0.7,0.8,2,u,-3
CC(Oc1ccc(Cl)cc1Cl)C(=O)/C=C/N(C)C (stereo not given),-1%,-6,-2.5,-2.6,-13,-1.2,-15
COc1ccc(O)c(C(=O)c2cnn(C(=O)c3cc(C)oc3C)c2)c1,3%,-6,-5.5,168,48,4.7,19
CCC(=O)Oc1ccc(C(=O)Nc2ccc3c(c2)OCO3)cc1,6%,-5,-2.4,4.0,-9,-0.7,-1
O=C(CSc1nnc(C2CC2)n1Cc1ccccc1)N1CCN(S(=O)(=O)c2ccccc2)CC1,15%,5,1.9,3.1,x,-2.1,-1
COc1cccc(NC(=O)N2CCCC2C(=O)NCC(C)C)c1 (stereo not given),2%,-6,-6.5,2.4,-6,2.1,-5
C=CCn1c(N)cc(=O)nc1SCC(=O)N1CCN(c2ccc(F)cc2)CC1,32%,-5,3.2,1.4,21,u,-14
O=C(CN1CCN(Cc2ccccc2)C1=O)NCc1cccs1,-7%,-1,-3.7,6.4,0,2.0,5
O=C(COc1ccccc1Br)NCc1ccccn1,1%,6,0.7,1.4,-3,3.5,2
O=C(Cc1cccs1)Nc1ccc(F)cc1F,x,9,2.4,8.8,-3,-3.7,2
COc1ccc(-c2nc(C#N)c(N3CCCCC3)o2)cc1,-13%,5,-0.8,2.6,-15,2.2,-6
O=[N+]([O-])c1ccc(S(=O)(=O)NCC2CC3CCC2C3)cc1 (stereo not given),4%,-4,6.9,-0.1,x,5.3,-2
COc1ccccc1N(Cc1cc(=O)[nH]c2ccccc12)C(=O)c1cccc([N+](=O)[O-])c1,0%,44,x,-1.0,x,1.6,-4
CC(C)c1ccc(-n2cccc2/C=C2/C(=N)N3C=CSC3=NC2=O)cc1,x,-2,4.6,51*,1,-6.8,11
O=c1c2ccccc2cnn1Cc1n[nH]c(=S)n1-c1ccccc1F,-5%,1,5.4,-3.0,x,-3.1,0
O=C(NCCC1=CCCCC1)c1ccc(Cl)c(S(=O)(=O)Nc2ccccc2)c1,1%,17,-2.6,1.9,x,2.7,-10
Cc1c(Cl)cccc1N1C(=O)C2ON(c3ccccc3)C(c3cccnc3)C2C1=O (stereo not given),3%,0,0.7,0.5,0,-1.3,4
CC(C)C[C@H](NC(=O)OC(C)(C)C)C(=O)N[C@@H](CO)[C@H](O)[C@@H]1C[C@@H]1C(=O)N(C)C,x,-4,-3.3,0.0,3,-1.1,-6
CC(C)[C@H](N)c1cn([C@@H](CC(N)=O)C(=O)N2CCNCC2)nn1,x,x,-4.0,-2.1,-13,x,2
Cc1ccc(CNc2nc(N)c([N+](=O)[O-])c(Nc3ccc(F)cc3)n2)cc1,-7%,-11,2.4,6.9,-7,19*,-12

The listing continues:
canonical_smiles,Vif A3G,Calb FLC,LANA-H2A inh,HNF4A DNA FP,ALR H2O2 inh,RanGTP-Imp inh,B2AR ag
CC(NC(=O)CNC(=O)OCc1ccccc1)C(=O)N1CC(O)CC1C(=O)OCc1ccccc1 (stereo not given),-2%&2%,4,2.8,-2.8,x,-1.1,6
O=C(CN1CCCC1)Nc1sc2c(c1C(=O)Nc1ccc(Br)cc1)CCC2,7%,9,-1.4,-0.7,14,-1.2,5
CC1CCCCC1NC(=O)C1CCN(C(=O)c2sccc2-n2cccc2)CC1 (stereo not given),u,-11,-3.3,-3.0,-5,6.3,4
Cc1ccc(-c2noc(CCC(=O)NCCN3CCOCC3)n2)cc1,17%,2,7.8,4.5,x,4.2,-3
CCn1nc(C(=O)OCC(=O)c2cc(C)n(Cc3cccs3)c2C)c2ccccc2c1=O,-1%,13,5.2,-2.7,-4,-1.3,2
COc1ccc(S(=O)(=O)CCC(=O)Nc2cccc(OC)c2)cc1,16%,17,-2.8,x,-7,3.8,x
Cc1nn2c3c(cnc2c1-c1ccccc1)C(=O)CC(c1ccco1)C3 (stereo not given),-4%,-5,2.9,1.0,36,-2.0,-14
COc1ccc(C(CC(=O)O)N2C(=O)CCC2=O)cc1 (stereo not given),-1%,-1,2.8,6.4,-7,0.1,-6
CCCCC1S/C(=N/N=C/c2ccco2)NC1=O (stereo not given),1%,100*,-2.4,-1.0,-7,5.6,-2
O=C(Cn1cncn1)N/N=C/c1ccccc1Cl,67%,-10,5.6,5.3,-16,5.5,-8
O=C(Nc1ccccc1Cl)c1ccc(COc2ccc3c(c2)CCC3)cc1,21%,7,-1.4,-0.3,20,-0.3,5
COc1ccc(N(CC(=O)NCCc2ccc(OC)c(OC)c2)S(=O)(=O)c2c(C)noc2C)cc1,x,9,3.7,1.4,-3,-0.5,6
CCN(CC)CCCNC(=O)c1c(O)c2c([nH]c1=O)CCCC2,24%,-12,-5.9,1.2,4,-1.7,-15
COc1ccc(-c2noc(CNC(=O)c3ccoc3C)n2)cc1,x,-13,-8.8,1.1,x,2.4,3
O=C1OCCN1C(=O)[C@H]1[C@H](c2ccccc2)C(c2ccc(F)cc2)=NN1c1ccc(Br)cc1,-6%,x,x,1.0,x,x,2
CN(C(=O)COc1ccccc1)c1nnc(C23CC4CC(CC(C4)C2)C3)s1,x,3,0.3,-1.7,x,u,3
O=C(Nc1ccccc1)/C(=C/c1ccc2c(c1)OCO2)NC(=O)c1ccco1,27%,1,-1.9,-1.8,-4,0.5,5
CN(CC(=O)Nc1cccc2ccccc12)C(=O)c1cccc(S(=O)(=O)N(C)C)c1,11%,-19,-4.0,-1.9,-9,0.7,-3

Screening data from PubChem BioAssay.
